# Bioassay records (PubChem)
# TRPV1 potentiator: human TRPV1 potentiation; AID 540277; TRPV1-expressing cells, Fluo-8 calcium influx, capsaicin EC20 potentiation; host cell line not named in the record; control for the full effect not named in the record; Q8NER1; 320,000 tested, 0.02% active; potentiation, % at 8.33 µM; active means potentiation above 80%; inconclusive means 30% to 80%; inactive means below 30%; further: 0% is about no effect
# Target sequence (Q8NER1 whole entry, looked up): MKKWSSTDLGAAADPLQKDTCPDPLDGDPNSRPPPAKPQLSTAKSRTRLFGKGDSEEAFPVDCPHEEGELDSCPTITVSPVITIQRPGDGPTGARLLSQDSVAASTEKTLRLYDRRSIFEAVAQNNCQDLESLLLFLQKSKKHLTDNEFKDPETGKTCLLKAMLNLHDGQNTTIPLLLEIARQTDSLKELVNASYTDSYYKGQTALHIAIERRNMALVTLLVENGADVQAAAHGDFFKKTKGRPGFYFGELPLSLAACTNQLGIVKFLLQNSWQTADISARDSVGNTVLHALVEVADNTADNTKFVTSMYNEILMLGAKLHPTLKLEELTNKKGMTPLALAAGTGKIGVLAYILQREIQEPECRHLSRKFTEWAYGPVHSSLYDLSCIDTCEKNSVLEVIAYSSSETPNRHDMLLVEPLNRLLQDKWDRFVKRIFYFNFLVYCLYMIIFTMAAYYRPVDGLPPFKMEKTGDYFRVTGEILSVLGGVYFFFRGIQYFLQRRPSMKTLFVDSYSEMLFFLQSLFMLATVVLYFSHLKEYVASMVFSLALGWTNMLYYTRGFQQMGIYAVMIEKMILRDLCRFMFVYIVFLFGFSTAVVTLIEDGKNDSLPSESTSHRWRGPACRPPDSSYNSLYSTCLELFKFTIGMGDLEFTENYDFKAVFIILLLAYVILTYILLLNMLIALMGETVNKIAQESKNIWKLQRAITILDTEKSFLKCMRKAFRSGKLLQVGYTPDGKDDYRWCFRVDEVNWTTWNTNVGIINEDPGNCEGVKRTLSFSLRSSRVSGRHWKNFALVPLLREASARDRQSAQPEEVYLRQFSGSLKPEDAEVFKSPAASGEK
#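 Fluo-8 calcium influx in TRPV1-expressing cells, kinetic read (ex 480/em 520 nm). Compound added and read 3 min for agonist activity, followed by capsaicin at EC20 final and 2 min further read for enhancement.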
# Sfp PPTase inh: Sfp phosphopantetheinyl transferase inhibition. Q9F4F7. Biochemical Sfp PPTase activity, qHTS. Potency, µM, without a hit: max response, negative = inhibition, actives largely listed as inhibitors. 310,000 tested, 3.5% active; active means well fitted inhibition curve with a large enough effect; inconclusive means small, poorly fitted or top-dose-only effect, or another doubt; inactive means no such curve, though single readings can be large or run the other way;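 further: the enzyme is Sfp with the accession as filed and its product quenches rhodamine fluorescence; potency means the concentration at half of the fitted maximal effect; 0% = enzyme reaction without inhibitor and -100% = no enzyme wells; top concentration of the series not given in the record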
#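 With Hepes-Na pH 7.6 buffer containing 10 mM MgCl2, Sfp (15 nM) modified BHQ-2-YbbR (12.5 uM) using rhodamine-CoA (5 uM). Two reads 30 minutes apart at 525/598 nm yielded each well's rate.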
# gsp antagonist: gsp mutant antagonism. gsp-mutant cells, cAMP HTRF, 30 min; control for the full effect not named in the record. Potency, µM (titrated, usually from 76.9 µM), without a hit: at the top dose activity change, negative = inhibition, actives largely listed as inhibitors. 340,000 tested, 0.4% active. AID 624288; active = falling curve of any shape with a large fitted effect; inconclusive = falling curve, mostly with a smaller effect; inactive = flat or rising curve; cell line not stated here;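 further: intracellular cAMP measured with PDE inhibitor Ro 20-1724 present during compound exposure; potency means the concentration at half of the fitted maximal effect; on the % scale 0 is the no-effect control and ±100 the full control effect; nearly all actives have a fitted effect of over 65% in size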
#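 Cells in G418 medium, seeded 16-24 h, 37C; buffer exchange to DPBS + 1 mM CaCl2, 0.5 mM MgCl2, 0.05% BSA; cpds in DMSO + […] (300 uM stock), 30 min 37C; HTRF cAMP detection.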
# Menin MLL FP FL: inhibitors of human menin-MLL interaction, wild-type MLL peptide | Fluorescence polarization, fluorescein-MLL peptide displacement from menin | FP activity change, % at 61.4 µM | 290,000 tested, under 10 active | AID 1766; inconclusive = falling polarisation curve, or a change in total fluorescence; inactive = total fluorescence flat and polarisation flat or rising; no compound was filed as active; the % refers to the polarisation; negative = inhibition;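 further: % of control where 0% means no effect; inhibitors lower the polarisation; unlabelled MLL peptide was the positive control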
# CtBP-E1A blk: blocks the CtBP interaction with E1A. AlphaScreen GST-E1A/His-CtBP binding, 1536-well; active compounds read low; control for the full effect not named in the record. activity change, % (test concentration not listed). 340,000 tested, 0.49% active. AID 651724; in the data active means activity change below about -65%; inconclusive means about -30% to -65%; inactive means above about -30%; further: on the % scale 0 is the no-effect control and ±100 the full control effect
#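 GST-E1A and His-tagged CtBP (125 nM each as 5X stock) were preincubated with pin-transferred compound for 2 h at 37 °C in the dark, then glutathione donor and nickel acceptor beads were added for 1 h before AlphaScreen reading.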
# ClpP mod: qHTS Assay for Activators of ClpP. Potency, µM (highest dose often 57.5 µM), for the others: at the top dose activity change, negative = active. purified B. subtilis ClpP, FRET peptide cleavage, 20 min. ATP-dependent Clp protease proteolytic subunit (Bacillus subtilis (strain 168)), P80244. AID 651965, 2013. 340,000 tested, 1.9% active; active = well fitted falling curve with a large enough effect; inconclusive = small, poorly fitted or top-dose-only effect; inactive = no such curve, though single readings can be large or run the other way; further: potency means the concentration at half of the fitted maximal effect; the source files actives as falling curves though it sought activators and does not explain the sign; nearly all actives have a fitted effect of over 65% in size; many hits overshoot -100%
# Target sequence (P80244 whole entry, looked up): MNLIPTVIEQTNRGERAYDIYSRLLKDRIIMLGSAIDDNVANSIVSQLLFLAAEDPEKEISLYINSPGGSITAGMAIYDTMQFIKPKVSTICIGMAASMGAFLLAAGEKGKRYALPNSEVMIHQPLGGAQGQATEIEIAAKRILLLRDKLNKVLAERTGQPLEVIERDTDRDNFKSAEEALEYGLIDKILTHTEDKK
#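 Buffer: 100 mM Tris/HCl pH8, 100 mM KCl, 0.05% low protease BSA, 2.5% glycerol, 0.01% Tween-20. ClpP 10 microg/mL final; 20 min RT; delta FRET normalized to ADEP and DMSO controls.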
# gsp agonist: activates gsp, the McCune-Albright syndrome mutation. Potency, µM (top dose mostly 76.9 µM), without a hit: at the top dose activation (cAMP increase), usual class: activators. 340,000 tested, 0.13% active. gsp mutant cells, cAMP HTRF, 30 min; control for the full effect not named in the record; active = well fitted activation curve with a large enough effect; inconclusive = small, poorly fitted or top-dose-only effect, or another doubt; inactive = no such curve, though single readings can be large or run the other way; cell line not stated here;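 further: phosphodiesterase inhibitor Ro 20-1724 added with compounds to block cAMP breakdown; potency means the concentration at half of the fitted maximal effect; nearly all actives have a fitted effect of over 60% in size; about a fifth of the inactives were tested at one dose only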
#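 Cells stably selected in G418 were plated at 2000/well, grown 16-24 hr, then given compounds in DMSO with the PDE inhibitor […] (300 uM solution added) for 30 min at 37C; cAMP was read by HTRF.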
# Active calls of the source: *; ? = inconclusive; . = not tested or not shown; & = joins results of further samples; [ ] = remark or other dose.
SMILES,TRPV1 potentiator,Sfp PPTase inh,gsp antagonist,Menin MLL FP FL,CtBP-E1A blk,ClpP mod,gsp agonist
Cc1ccc(-c2nn(-c3ccccc3)cc2C=O)o1,-24.3,39.8µM*,0.0%,5.4,-5.1,.,?
COc1ccc(-c2csc(NC(=O)c3c(OC)cccc3OC)n2)cc1,1.9,6.2%,13.1%,-2.1,-3.1,0.6%,-23.4%[15.4 µM]
Cc1nc2ccc(NC(=O)C3CCCCC3)cc2s1,-2.5,.,-3.0%,.,.,-1.1%,21.2%
COc1cc(OC)c(OC)cc1/C=N/NC(=O)C[n+]1ccccc1,6.1,-2.6%,18.6%,2.8,2.7,-3.1%,2.1%
Cc1ccc(COc2ccsc2C(=O)NN)cc1,-2.9,2.2%,0.5%,-0.3,20.3,.,12.4%[15.4 µM]
Fc1ccc(C(c2nnnn2Cc2cccs2)N2CCN(C3CCCCC3)CC2)cc1 (stereo not drawn),-4.5,-6.1%,-6.0%,-0.7,-1.1,-0.1%,-0.4%
COc1ccc(-c2nc(N)n[nH]2)cc1,-4.3,10.4%,8.4%,0.5,-4.6,-24.3%,?
CC[C@@]1(C(=O)OC)N[C@H](CN(C)C(=O)Nc2ccc(C(F)(F)F)cc2)[C@@H]2C(=O)N(C)C(=O)[C@@H]21,.,.,9.3%,.,9.6,2.3%,.
COc1cc(C(=O)COC(=O)c2cnc(C)cn2)ccc1OC(F)F,17.0,9.8%,2.7%,1.1,24.8,-1.3%,-54.3%[inhibitor]
COC(=O)c1ccc2c(=O)n(Cc3ccco3)c(SCC(=O)Nc3ccccc3Cl)nc2c1,0.2,-10.8%,9.4%,8.6,4.4,-1.4%,?
Cc1cc(Br)ccc1SCC(=O)OCC(=O)NCc1ccc2c(c1)OCO2,-14.4,-1.8%,-0.6%,-0.5,11.0,0.4%,?
CCn1cc2nc(SCC(=O)Nc3ccc(OC)cc3OC)n(Cc3ccc(OC)cc3)c(=O)c2n1,2.2,-4.3%,2.2%,5.4,-0.8,.,16.1%
CCOC(=O)Nc1ccc2c(COC(=O)CNS(=O)(=O)c3ccc(NC(C)=O)cc3)cc(=O)oc2c1,9.8,14.4%,15.1%,-2.4,-0.8,.,42.2%
Cc1ccc(NC(=O)CN(C)S(=O)(=O)c2ccc(Br)s2)cc1F,-21.2,7.4%,2.9%,4.9,9.4,0.9%,-19.2%[15.4 µM]
CNC(=O)c1c(NC(=O)CS(=O)(=O)c2ccc(F)cc2)sc(C)c1C,15.4,.,7.9%,.,7.9,0.6%,-15.1%
CCN1C(=O)C2CCCCN2c2ccc(C(=O)NCCOC)cc21 (stereo not drawn),-1.2,3.5%,3.6%,1.5,.,-5.7%,-4.3%
COc1ccccc1C(=O)Nc1cccc(NC(=O)c2ccccc2OC)n1,1.3,?,-14.8%,7.5,9.7,0.5%,-4.5%[15.4 µM]
CCn1nnnc1SCC(=O)c1ccc2c(c1)OCCO2,7.1,4.2%,6.2%,3.6,-1.0,0.5%,-28.3%
COc1ccc(/C(N)=N/OC(=O)C2CCCCC2)cc1OC,-2.2,-0.9%,-12.6%,.,-6.8,-3.9%,5.6%
CC(C)(CNC(=O)CCNC(=O)c1ccc(Br)cc1)N1CCOCC1,?,.,11.0%,.,12.0,1.9%,-2.8%
O=C(N/N=C\c1ccc2c(c1)OCO2)c1ccco1,-6.7,20.0%,4.2%,5.0,-2.1,-6.7%,-0.5%
CC1CC(=O)Nc2ccccc2N1C(=O)CN1CCN(c2ccccc2)CC1 (stereo not drawn),17.2,14.0%,12.2%,-0.2,-8.4,.,-0.6%[15.4 µM]
CC(C)C[C@@H](CO)N(Cc1ccccc1)S(=O)(=O)N(Cc1ccccc1)[C@H](CO)CC(C)C,-12.8,.,2.1%,.,4.1,1.7%&2.0%,.
COc1ccc(NC(=O)Cn2c(=O)n(-c3ccc(CC(=O)NCc4ccco4)cc3)c(=O)c3ccccc32)cc1,0.8,1.8%,28.0%,5.2,-6.2,-4.2%,41.7%
COC(=O)[C@H](CCSC)NC(=O)NCCc1ccc(F)cc1,-1.4,11.5%,15.0%,3.5,4.2,0.6%,-39.4%[inhibitor]

# Compound profiles, from the list above. Screens in order: TRPV1 potentiator	Sfp PPTase inh	gsp antagonist	Menin MLL FP FL	CtBP-E1A blk	ClpP mod	gsp agonist
# Listed for CC1CC(=O)Nc2ccccc2N1C(=O)CN1CCN(c2ccccc2)CC1 (stereo not drawn) = 17.2	14.0%	12.2%	-0.2	-8.4	.	-0.6%[15.4 µM]
# Listed for CCn1nnnc1SCC(=O)c1ccc2c(c1)OCCO2 = 7.1	4.2%	6.2%	3.6	-1.0	0.5%	-28.3%
# Listed for COc1ccc(/C(N)=N/OC(=O)C2CCCCC2)cc1OC = -2.2	-0.9%	-12.6%	.	-6.8	-3.9%	5.6%

# (listing goes on)
SMILES,TRPV1 potentiator,Sfp PPTase inh,gsp antagonist,Menin MLL FP FL,CtBP-E1A blk,ClpP mod,gsp agonist
O=C(COc1ccc(/C=N/NC(=O)C(=O)N2CCCCC2)cc1)Nc1ccccc1Cl,22.4,-4.0%,-18.4%,1.7,-10.7,.,3.0%
CCc1ccc(NC(=O)c2cc(C(C)C)on2)cc1,-17.2,5.7%,-11.5%,2.2,10.6,1.8%,-13.0%
NC(=O)c1ccc(NC(=O)c2ccccc2S(=O)(=O)c2ccccc2[N+](=O)[O-])cc1,-1.1,7.9%,13.6%,.,-15.7,2.1%,0.6%
CCCN1CCC(=O)NC1=S,.,.,7.0%,.,5.3,.,31.4%
O=C(NCc1ccccc1)c1ccc(CN2CCOCC2)cc1,-8.7,8.0%,-7.1%,1.6,-1.3,-1.5%,14.0%
O=C(NNc1ccccc1)C(=O)NNS(=O)(=O)c1ccc([N+](=O)[O-])cc1,9.8,14.5%,13.2%,-6.5,-4.7,.,-2.8%[15.4 µM]
O=C(Nc1ccc(F)cc1)C(=O)c1cn(CC(=O)N2CCOCC2)c2ccccc12,-6.3,19.4%,-4.9%,.,4.8,2.3%,-1.9%
Cc1ccc(C)c(S(=O)(=O)NC(CC(C)C)C(=O)O)c1 (stereo not drawn),-7.4,10.4%,7.2%,1.7,-15.5,-1.6%,-29.6%[15.4 µM]
CCS(=O)(=O)N1CCC(C(=O)Oc2ccccc2Br)CC1,11.7,13.7%,-16.8%,-5.1,-3.5,28.2µM*,6.5%[15.4 µM]
Cc1ccc(CC(CC(=O)O)C(=O)NCc2ccccc2)cc1 (stereo not drawn),-1.1,22.5%,9.9%,5.4,1.0,15.8µM*,4.5%[15.4 µM]
CC(C)C(NS(=O)(=O)c1ccc2c(c1)C(C)(C)C(=O)N2C)C(=O)NCc1ccc(F)cc1 (stereo not drawn),-11.8,17.6%,8.5%,-3.0,5.0,0.8%,?
O=C(CCC(=O)c1cccs1)OCC(=O)c1ccccc1,.,.,-13.8%,.,0.0,1.6%,-0.5%
COC(=O)[C@@H](NC(=O)Nc1ccccc1F)C(C)C,?,18.8%,16.0%,-0.2,1.9,-0.4%,-32.2%[inhibitor]
Cn1ccnc1SCC(=O)N(C1CCCCC1)C1CCCCC1,13.3,0.6%,-17.3%,-1.8,-3.9,0.1%,-63.2%[inhibitor]
Cc1ccc(-c2onc3ccc(C(=O)O)cc23)cc1,-3.2,-8.3%,-13.5%,2.2,15.0,-5.2%,-4.9%
Cc1ccccc1NC(=O)c1[nH]cnc1C(=O)NN,-1.0,23.4%,-2.4%,-19.9,-23.9,-14.9%,13.7%[15.4 µM]
CCCc1cc(NC(=O)CCl)n(-c2ccccc2)n1,-7.6,5.4%,-1.3%,-2.6,0.0,.,-58.4%[inhibitor]
Cc1ccc(CC(=O)Nc2nc3ccccc3s2)cc1,14.5,0.4%,2.2%,-0.4,-1.3,0.4%,-7.0%
COc1ccc(CN2C(=O)c3cccnc3C2=O)cc1S(=O)(=O)NCc1ccc(C)cc1,6.2,14.7%,2.4%,0.5,.,0.9%,?
COc1cc(C(=O)Nc2ccc(C)c(S(=O)(=O)N(C)C)c2)ccc1OCC(=O)N1CCOCC1,-1.2,.,7.8%,.,-3.6,?,15.5%
CC1=C(C(=O)Nc2cccc(F)c2)C(c2ccsc2)C2=C(CC(C)(C)CC2=O)N1 (stereo not drawn),4.8,-4.2%,0.4%,2.8,8.3,-29.5%,-5.9%
O=C1c2cc(Br)ccc2OC2C=CC=CC12 (stereo not drawn),.,.,4.3%,.,9.9,-9.6%,.
Cc1ccc(NC(=O)N2CCCC(c3ccccc3)C2)cc1 (stereo not drawn),-9.8,2.4%,-14.6%,3.3,6.7,0.7%,4.6%
COc1ccccc1-n1nnnc1S(=O)(=O)Cc1ccc(Cl)cc1,4.4,6.1%,7.5%,4.1,6.1,-3.3%,-5.2%
Nc1nc2c3ccccc3nc(C3CC3)n2n1,1.7,15.0%,-1.7%[15.4 µM],0.4,-15.3,22.4µM*,0.0%

# Structures listed so far that contain two or more sulfur atoms (two):
SMILES,TRPV1 potentiator,Sfp PPTase inh,gsp antagonist,Menin MLL FP FL,CtBP-E1A blk,ClpP mod,gsp agonist
Cc1ccc(NC(=O)CN(C)S(=O)(=O)c2ccc(Br)s2)cc1F,-21.2,7.4%,2.9%,4.9,9.4,0.9%,-19.2%[15.4 µM]
CNC(=O)c1c(NC(=O)CS(=O)(=O)c2ccc(F)cc2)sc(C)c1C,15.4,.,7.9%,.,7.9,0.6%,-15.1%

# The results go on:
SMILES,TRPV1 potentiator,Sfp PPTase inh,gsp antagonist,Menin MLL FP FL,CtBP-E1A blk,ClpP mod,gsp agonist
O=c1nc2n(c3c4c(sc13)CCC4)CCC2,-8.1,4.5%,17.3%,-11.0,-2.5,-2.6%,?
O=C(O)c1ccc2c(c1)C(=O)N(c1ccc(OCc3ccccc3)cc1)C2=O,-3.6,23.1%,-5.2%,-0.1,-0.8,-2.0%,7.7%
O=C(COc1ccc(/C=N/NC(=O)c2ccncc2)cc1)Nc1ccccc1,10.1,7.0%,-0.9%,4.6,0.8,.,?
CCn1c(=O)ccc2cc([N+](=O)[O-])ccc21,-0.5,14.1%,12.2%,-3.2,4.6,1.4%,-39.7%[inhibitor]
CC(C)CN(C(=O)COC(=O)Cc1c[nH]c2ccccc12)c1c(N)n(Cc2ccccc2)c(=O)[nH]c1=O,0.1,.,2.6%,.,0.0,-2.9%,-5.7%
COc1ccccc1CNc1cc(C)ccn1,1.8,-1.9%,11.9%,4.0,-10.4,.,-0.1%
